# MbtI inh: inhibitors of Mycobacterium tuberculosis siderophore enzyme MbtI | P9WFX0 | purified MbtI enzyme, fluorescence intensity read-out | inhibition, %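 (about 17 µg/mL by stock and volumes)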 | 100,000 compounds, 0.89% hits;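 active = above 50% in both replicates, above 80% if mildly self-fluorescent; inactive = the rest, strongly fluorescent compounds included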;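 note: 0% = mean of negative and 100% = mean of positive controls; one replicate is shown; some compounds called inactive have numbers as strong as hits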
# Mtb MenB inh: inhibitors of Mycobacterium tuberculosis MenB enzyme; AID 540299; MenB enzyme assay, absorbance read-out; some hits fall short of the stated cut; inhibition, %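 (about 12 µg/mL by stock and volumes)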; 100,000 compounds, 0.43% hits; P9WNP5;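 active = mean of two replicates above 30%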;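 note: 0% = no compound and 100% = wells with inactive enzyme; the first replicate is given; strong numbers were not always called active; inactives centre near -10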
# Target sequence (P9WNP5 whole entry, looked up): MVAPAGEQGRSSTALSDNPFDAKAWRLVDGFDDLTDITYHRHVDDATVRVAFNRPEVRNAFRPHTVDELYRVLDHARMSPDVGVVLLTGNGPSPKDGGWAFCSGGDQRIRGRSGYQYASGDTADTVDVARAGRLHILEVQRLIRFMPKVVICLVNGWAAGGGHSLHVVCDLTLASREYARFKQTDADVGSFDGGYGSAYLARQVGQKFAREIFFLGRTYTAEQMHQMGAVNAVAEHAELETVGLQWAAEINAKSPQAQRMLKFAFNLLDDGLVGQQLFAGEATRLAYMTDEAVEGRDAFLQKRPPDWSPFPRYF
# PV pol inh: poliovirus RNA polymerase inhibition; P03300; poliovirus polymerase elongation, fluorescence polarization; stronger effect = lower value; % elongation, % (compound at 16.7 µg/mL); 150,000 compounds, 0.66% hits; in the data active = % elongation below about 90%; note: some results filed as inactive read as strong as hits
# Target sequence (P03300 1749-2209 limits assumed): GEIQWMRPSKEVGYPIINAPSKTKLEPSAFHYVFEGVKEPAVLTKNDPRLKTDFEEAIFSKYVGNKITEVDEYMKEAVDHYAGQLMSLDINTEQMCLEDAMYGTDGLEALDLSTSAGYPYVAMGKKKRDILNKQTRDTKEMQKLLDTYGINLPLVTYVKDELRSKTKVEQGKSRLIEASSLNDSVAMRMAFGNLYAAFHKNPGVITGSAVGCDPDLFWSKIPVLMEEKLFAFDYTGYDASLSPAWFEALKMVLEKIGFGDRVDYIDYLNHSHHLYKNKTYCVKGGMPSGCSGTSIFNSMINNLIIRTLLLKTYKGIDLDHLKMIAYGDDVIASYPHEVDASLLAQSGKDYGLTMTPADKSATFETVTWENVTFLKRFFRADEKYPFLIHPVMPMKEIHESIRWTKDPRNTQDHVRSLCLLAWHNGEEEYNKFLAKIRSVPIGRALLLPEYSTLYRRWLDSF
# PV pol inh intensity: further read-out of PV pol inh, marked with its call; % elongation; measured here: total intensity read-out; formula for this scale not given here;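 total fluorescence in place of polarization; lower means less elongation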
# Active calls of the source: *; x = not tested or not shown; & = joins results of further samples.
SMILES,MbtI inh,Mtb MenB inh,PV pol inh,PV pol inh intensity
OC1(C(F)(F)F)NN=C2C=Cc3ccccc3N21 (stereo not drawn),x,-54.8,151.0,172.0
O=C(NCCSc1c[nH]c2ccccc12)C1CC1,0.6,13.8,104.0,103.0
O=C(OCCn1ncc2ccccc2c1=O)c1ccc(F)cc1Cl,-1.6,6.7,104.0,108.0
c1ccc(-n2nc3ccc4nonc4c3n2)cc1,0.6,25.8,99.0,102.0
COc1ccc(S(=O)(=O)NCC(=O)N(C)Cc2cccc(F)c2)cc1,11.4,-5.2,97.0,99.0
Cc1ccccc1/C=N/NC(=O)c1ccc(-n2cnnn2)cc1,-5.0,-0.1,102.0,103.0
CCCN1Cc2cccc(C(=O)NC(C)c3ccc4c(c3)OCCO4)c2C1=O (stereo not drawn),-5.0,8.9,100.0,104.0
CCC(Sc1nc2sc(C(=O)OC)c(C)c2c(=O)n1N)C(=O)NC1CCCC1 (stereo not drawn),151.1,-20.9,102.0,100.0
O=C1S/C(=C/c2ccco2)C(=S)N1c1ccccc1,28.8,-20.3,99.0,102.0
O=C(CSc1nnc(-c2ccncc2)o1)Oc1ccccc1,7.9,0.2,99.0,103.0
N#CCn1c(-c2ccc(Cl)cc2)noc1=O,-1.9,14.6,100.0,100.0
Oc1ccc(Br)cc1C=NCC12CCC3CC(CC(C3)C1)C2,-0.7,-14.8,101.0,97.0
O=C(NCCCN1CCC(Cc2ccccc2)CC1)c1nnc(-c2cccc(Cl)c2)o1,1.4,-4.9,102.0,101.0
Cc1ccc(NC(=O)N(C)C)cc1,-2.4,-13.1,101.0,106.0
Cc1ccc(NC(=O)CSc2nc3c(sc4ccccc43)c(=O)n2CC2CCCO2)cc1C (stereo not drawn),62.8,-9.3,103.0,105.0
C[N+]1(Cc2ccco2)Cc2ccccc2C1,-6.3,-6.3,99.0,106.0
O=C(C1CCCN(S(=O)(=O)c2ccccc2)C1)N1CCCCC1 (stereo not drawn),-15.1,9.1,101.0,105.0
COC(=O)c1cc(=O)n(C)c(=Nc2ccc(F)cc2)s1,26.0,-18.2,99.0,103.0
Cc1c2oc3c(c2cc2c4c(c(=O)oc12)CCCC4)CCCC3,-3.5,23.5,101.0,102.0
CCOC(=O)C1CCN(C(=O)c2ccccc2F)CC1,-15.2,-11.2,100.0,103.0
CC(=O)Nc1ccc(NC(=O)C(C)OC(=O)C2CC(=O)N(CCc3ccccc3)C2)cc1 (stereo not drawn),4.5,-2.4,103.0,109.0
CS(=O)(=O)N(CC(=O)Nc1ccc(S(=O)(=O)N2CCCC2)cc1)c1ccc2c(c1)OCO2,-4.9,5.0,101.0,99.0
CCOC(=O)c1cccc(NC(=O)CNC(=O)C2CCCCC2)c1,-4.9,x,99.0,97.0
O=C(O)CCc1nc2cc(Cl)ccc2n(Cc2ccccc2)c1=O,-4.3,x,100.0,105.0
c1ccc(N=c2scc(-c3cccs3)n2-c2ccccc2)cc1,6.3,-1.4,103.0,103.0
Cc1ccc(C(CN2CCOCC2)c2nc(-c3ccccc3)nn(CN3CCOCC3)c2=O)cc1 (stereo not drawn),1.8,1.3,100.0,102.0
O=C(Nc1c(C(=O)N2CCCCC2)cnn1-c1ccccc1)c1ccccc1,x,-4.9,109.0,99.0
Clc1cccc(Oc2ncnc3sccc23)c1Cl,-1.1,x,101.0,104.0
O=C(Nc1ccccc1)N(O)c1ccc(Cl)cc1,-72.9,-7.9,103.0,107.0
Cc1cc(NC(=O)CSCc2ccco2)no1,-5.3,-14.1,100.0,102.0
COc1ccc(CCC(C)N)cc1 (stereo not drawn),-7.5,-68.5,105.0,102.0
CN(C)CC#Cc1cncc(C(=O)NN)c1,2.6,2.4,103.0,99.0
O=C(c1ccccc1)c1c(CS(=O)(=O)c2ccc(C(F)(F)F)cn2)[nH]n(-c2ccccc2)c1=O,-5.5,15.5,111.0,101.0
CN1c2ccccc2N(Cc2ccccc2)C(=O)C1(C)C,-0.8,-3.5,100.0,100.0
COc1ccc(CC(=O)Nc2nc(-c3ccccc3)cs2)cc1,3.5,x,101.0,102.0
CCOc1ccc(C(=O)N2CCCC2)cc1,x,-12.7,104.0,105.0

# Record cards, as listed above.
# O=C(Nc1c(C(=O)N2CCCCC2)cnn1-c1ccccc1)c1ccccc1 is entered as MbtI inh: x; Mtb MenB inh: -4.9; PV pol inh: 109.0; PV pol inh intensity: 99.0
# CN(C)CC#Cc1cncc(C(=O)NN)c1 is entered as MbtI inh: 2.6; Mtb MenB inh: 2.4; PV pol inh: 103.0; PV pol inh intensity: 99.0
# COc1ccc(CCC(C)N)cc1 (stereo not drawn) is entered as MbtI inh: -7.5; Mtb MenB inh: -68.5; PV pol inh: 105.0; PV pol inh intensity: 102.0

# Next part.
SMILES,MbtI inh,Mtb MenB inh,PV pol inh,PV pol inh intensity
CC(C)(C)NC(=O)N1CCN(c2nc(-c3ccccc3)ns2)CC1,-10.2,0.8,97.0,98.0
CSc1ccccc1C(=O)NCCN1CCOCC1,-57.2,-10.2,105.0,102.0
O=c1c2ccccc2nc(-c2ccco2)n1-c1ccc(Cl)cc1,13.8,-11.2,103.0,110.0
Cc1ccc(S(=O)(=O)N(C)/N=C/c2cccc(Br)c2)cc1,0.9,-22.0,101.0,100.0
N#Cc1nc(-c2ccccc2)oc1NCc1ccco1,x,-17.9,104.0,105.0
COc1ccc(-n2c(C)cc(C(=O)COC(=O)Cn3cnc4ccccc43)c2C)cc1,187.2,-3.9,104.0,116.0
COC(=O)c1c(CSC(=N)N)nc2n(Cc3ccccc3)c3ccccc3n12,x,-22.3,106.0,104.0
O=C(CCc1nnc2n(Cc3ccc(F)cc3)c(=O)c3ccccc3n12)NC1CCCCCC1,12.3,-14.6,101.0,101.0
CCOc1ccc(NC(=O)C2CCCN(S(=O)(=O)c3c(C)[nH]c(=O)[nH]c3=O)C2)cc1 (stereo not drawn),0.8,6.4,102.0,101.0
O=C(CCN1C(=O)NC2(CCCC2)C1=O)Nc1nc(-c2ccccc2)cs1,-9.2,-5.3,104.0,112.0
CCn1c(C(C)NC=O)nc2ccccc21 (stereo not drawn),-5.1,-2.9,100.0,104.0
CN1CCN(S(=O)(=O)c2cccc3cccnc23)CC1,x,-14.1,106.0,110.0
CN(C)CCOC(=O)c1ccc2[nH]c3c(c2c1)CSCC3,50.2,4.8,99.0,90.0
O=c1sc(Nc2ccccc2)nc2ccccc12,4.5,31.1,100.0,102.0
Cc1ccc(N2NC(=O)/C(=C/C=C/c3ccco3)C2=O)cc1C,19.4,-63.6,101.0,101.0
Cc1ccc(/C=C(\C#N)C(=O)NC2CCCCCC2)o1,-4.2,-66.2,104.0,102.0
O=C1CCCN1c1ccc(S(=O)(=O)Nc2ccc(Cc3ccncc3)cc2)cc1,-4.3,1.6,99.0,99.0
Cc1cc(C(=O)Cn2nnc(-c3cccc(F)c3)n2)c(C)n1C1CCS(=O)(=O)C1 (stereo not drawn),7.3,-24.3,103.0,100.0
O=C(Nc1cccc(C(F)(F)F)c1)C(SCCO)c1ccccc1 (stereo not drawn),-5.0,x,103.0,105.0
CCCn1c(Sc2nnnn2-c2ccccc2)nc2ccccc2c1=O,-5.5,11.4,108.0,105.0
COc1ccc(Br)cc1C(=O)CCC(=O)O,-7.3,x,102.0,94.0
O=C(NCCO)c1c(Cl)cccc1Cl,-5.6,9.2,102.0,103.0
O=C(O)c1ccc(OCc2cn3ccccc3n2)cc1,102.5,-21.1,99.0,105.0
CCC1SC2=NCCN2C1(O)c1ccc(Cl)cc1 (stereo not drawn),x,-7.7,107.0,102.0
CNc1nc(OCC#N)nc(N2CCCCC2)n1,8.2,21.0,101.0,104.0
O=C(Nc1c2c(nn1-c1ccc(Cl)cc1)CSC2)c1ccc(C(=O)c2ccccc2)cc1,-1.5,-42.7,102.0,100.0
CN(C(=O)c1cnccn1)c1c(N)n(Cc2ccccc2)c(=O)[nH]c1=O,8.1,-12.0,111.0,118.0
N#Cc1c(NC(=O)c2cnn3c(C(F)(F)F)cc(-c4ccco4)nc23)sc2c1CCCC2,53.2,28.2,97.0,97.0
CC(C)(C)OC(=O)N1CCc2nc(Nc3ccccc3)ncc2C1,-1.9,-29.1,104.0,105.0
CC(C)(C)n1nc2c(c1N)CSC2,3.2,6.2,102.0,102.0
Cc1cc(NC(=O)/C(C#N)=C/c2ccc(-c3cccc(C(F)(F)F)c3)o2)n(-c2ccccc2)n1,-21.6,-13.3,109.0,121.0
CCCCN1C(=O)N(c2nnc(C(C)(C)C)s2)C(O)C1c1ccc(C)cc1 (stereo not drawn),6.8,-4.8,103.0,101.0
O=C(COc1ccc(-c2nnc(N3CCCCC3)c3ccccc23)cc1)N1CCCCC1,3.0,5.4,102.0,98.0
Cc1ccc(NC(=O)CSCc2c(C#N)c(C)nn2-c2ccccc2)c(Cl)c1,3.4,-39.7,102.0,103.0
CNC(=O)N(Cc1cccnc1)Cc1cccc(Cl)c1Cl,-7.8,-10.2,103.0,94.0
CCCC(=O)n1nc(NCc2ccccc2)nc1NCc1ccccc1,-1.1,-7.3,104.0,104.0
CCOC(=O)CCc1ccc(OCc2ccccc2)c(I)c1,-0.5,-23.7,106.0,106.0
COC(=O)c1sccc1NC(=O)COCc1cc(-c2cccs2)on1,8.2,9.8,102.0,96.0
CCN(CC)C(=O)Cn1nc(C)c(S(=O)(=O)N2CCCCC2)c1C,0.9,4.8,101.0,95.0
CCN1C(=O)/C(=C\c2ccc(C(C)C)cc2)SC1=S,6.3,-18.5,100.0,96.0
NC(N)=NS(=O)(=O)c1ccc(N)cc1,-5.5&-11.8,-2.6&-3.4,100.0&100.0,98.0&101.0
N#CC(C#N)=Cc1ccc(N2CCCCC2)cc1,6.1,-79.2,123.0,147.0
Cc1nnc(SCC(=O)NCC2CCCCC2)n(N)c1=O,20.5,1.2,101.0,98.0
NC(=S)N/N=C/CCn1c(=S)sc2ccccc21,27.0,-32.1,96.0,101.0
COc1ccccc1OCc1ccc(C(=O)NCC(C)C)o1,x,0.8,105.0,107.0
C/C(=N\NC(=O)c1ccc(Cl)cc1Cl)c1ccc(C)o1,18.3,6.4,102.0,106.0
CCn1cc(S(=O)(=O)Nc2cc(C(C)(C)C)on2)cn1,-7.7,-18.5,101.0,102.0
Cc1ccccc1C(=O)Nc1cc(C)c2c(=O)oc3ccccc3c2n1,2.4,-14.0,103.0,99.0

# Some values from the entries so far:
# PV pol inh intensity with CSc1ccccc1C(=O)NCCN1CCOCC1 stands at 102.0
# Mtb MenB inh with COc1ccc(-n2c(C)cc(C(=O)COC(=O)Cn3cnc4ccccc43)c2C)cc1 stands at -3.9

# (continued)
SMILES,MbtI inh,Mtb MenB inh,PV pol inh,PV pol inh intensity
CN(C)c1ccc(C(=O)OCC(=O)C23CC4CC(CC(C4)C2)C3)cc1,-5.1,4.6,99.0,106.0
CON(S(=O)(=O)c1ccccc1)S(=O)(=O)c1ccccc1,-3.9,-1.4,101.0,98.0
CN(CC(=O)NC1CCSc2ccccc21)S(=O)(=O)c1ccc(F)cc1 (stereo not drawn),-4.7,-19.3,111.0,118.0
C=CCSc1ncc2c(=S)[nH]c(=S)[nH]c2n1,56.1*,-102.5,93.0,98.0
COCc1nnc(NC(=O)c2ccc(S(=O)(=O)N(C)C3CCCCC3)cc2)o1,9.4,-15.6,103.0,105.0
CC(C)CCN1CSC2=C(C#N)C(c3ccc(F)cc3)CC(=O)N2C1 (stereo not drawn),25.9,-0.7,103.0,107.0
O=c1c2nnn(-c3cccc(Cl)c3)c2ncn1C/C=C/c1ccccc1,2.5,-10.3,101.0,100.0
CC1CN=C(Nc2cccc3ccccc23)S1 (stereo not drawn),-1.6,x,102.0,107.0
Cc1cccc(Cn2nc(C)c(NC(=O)c3ccncc3)c2C)c1,-8.9,-2.1,100.0,103.0
CCNc1nc(NC2CC2)nc(N(C)C#N)n1,-14.0,-6.3,102.0,102.0
Cc1ccc2cccc(OCC(=O)N3C(C)CCCC3C)c2n1 (stereo not drawn),163.9,-19.0,107.0,112.0
CC1CC(C)CN(CCCNc2cnnc3c(Cl)cccc23)C1 (stereo not drawn),4.3,4.3,101.0,97.0
Cc1ccc(N(Cc2ccc(C(=O)O)cc2)S(C)(=O)=O)cc1C,x,-17.6,105.0,109.0
Nc1ccc2oc3ccccc3c2c1,106.2,4.7,97.0,99.0
O=C(NC1CCCC1)c1ccc2ncsc2c1,2.5,3.0,106.0,107.0
CC(=O)OC/C=C(C)/C=C/C=C(C)/C=C/C1=C(C)CCCC1(C)C,-10.5,-9.6,101.0,100.0
c1ccc(N2CCN(c3ccccn3)CC2)nc1,4.5,6.6,103.0,103.0
Cc1nn(C)c2c1S(=O)(=O)N=C(SCc1c(F)cccc1Cl)S2,84.0*,-6.9,88.0*,88.0*
CCN(c1ccccc1)S(=O)(=O)c1ccc(Oc2ccc3c4c2CCCN4CCC3)nc1,21.9,-20.1,99.0,110.0
Nc1ccc2nsnc2c1,23.6,-111.1,45.0,118.0
Cc1nc2c(nc(C)n2-c2ccccc2)s1,x,-4.7,95.0,100.0
NC(=O)CCNc1ccccc1,10.2,15.2,104.0,98.0
CCCN1C(=O)S/C(=C\c2cn(CC(=O)N3CCOCC3)c3ccccc23)C1=O,0.2,-23.5,102.0,104.0
CN(C)S(=O)(=O)c1cccc(CSc2nnc(COc3ccccc3F)n2N)c1,-1.6,-12.4,103.0,102.0

# Source: PubChem BioAssay

# Not a hit list. About 1.8% of those tested had a hit in this group.
